YopH inh – inhibitors of Yersinia enterocolitica YopH tyrosine phosphatase. fluorescence Ex485/Em525. AID 898. inhibition, %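 (about 10 µM by stock and volumes)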. actives 0.16% (n = 140,000);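 active = inhibition of 50% or more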;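 also: controls were vehicle for no effect and minimum signal wells for full effect; inactives centre near -20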
Mtb growth – M. tuberculosis H37Rv growth inhibitors, H37Rv strain (AID 1626); actives 0.95% (n = 220,000); M. tuberculosis H37Rv growth inhibition; higher % means a stronger effect; inhibition, % at 10 µM; hits with a dose series show IC50 in µM;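 active = confirmed in a dose series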;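 also: bacteria incubated seven days before Alamar blue readout; 0% = bacteria only wells and 100% = bacteria with antibiotic wells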
Mtb betalactam – beta-lactam sensitization of Mtb H37Rv | inhibition, % at 25 µM | M. tuberculosis H37Rv growth with meropenem, percent inhibition; hits of this screen are not shown here | actives 0.27% (n = 330,000);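 active = about 74% or more and at least 40 points above the plate without the antibiotic, then above 30% in a dose series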;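 also: growth measured after seven days incubation then overnight dye step; 0% = bacteria only wells and 100% = bacteria with antibiotic; twin plates without the antibiotic show which effects depend on it; some results filed as inactive read as strong as hits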
Arbovirus inh – blocks arbovirus infection. arbovirus infection cell-based antiviral screen. inhibition, % at 10 µM. actives 0.37% (n = 200,000);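 active = inhibition from about 30%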;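 also: bluetongue infection of BSR cells; cell survival read as ATP light after 72 h; 0% = infected wells without compound and 100% = uninfected wells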
RecA intein inh – blocks M. tuberculosis RecA intein splicing; inhibition, %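 (about 9 µM by stock and volumes)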; AID 2221; actives 0.75% (n = 290,000); cell-free RecA intein splicing, fluorescence; P9WHJ3; in the data active = inhibition above about 30%;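 also: 0% = vehicle wells and 100% = reference inhibitor control wells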
Target sequence (P9WHJ3 whole entry, looked up): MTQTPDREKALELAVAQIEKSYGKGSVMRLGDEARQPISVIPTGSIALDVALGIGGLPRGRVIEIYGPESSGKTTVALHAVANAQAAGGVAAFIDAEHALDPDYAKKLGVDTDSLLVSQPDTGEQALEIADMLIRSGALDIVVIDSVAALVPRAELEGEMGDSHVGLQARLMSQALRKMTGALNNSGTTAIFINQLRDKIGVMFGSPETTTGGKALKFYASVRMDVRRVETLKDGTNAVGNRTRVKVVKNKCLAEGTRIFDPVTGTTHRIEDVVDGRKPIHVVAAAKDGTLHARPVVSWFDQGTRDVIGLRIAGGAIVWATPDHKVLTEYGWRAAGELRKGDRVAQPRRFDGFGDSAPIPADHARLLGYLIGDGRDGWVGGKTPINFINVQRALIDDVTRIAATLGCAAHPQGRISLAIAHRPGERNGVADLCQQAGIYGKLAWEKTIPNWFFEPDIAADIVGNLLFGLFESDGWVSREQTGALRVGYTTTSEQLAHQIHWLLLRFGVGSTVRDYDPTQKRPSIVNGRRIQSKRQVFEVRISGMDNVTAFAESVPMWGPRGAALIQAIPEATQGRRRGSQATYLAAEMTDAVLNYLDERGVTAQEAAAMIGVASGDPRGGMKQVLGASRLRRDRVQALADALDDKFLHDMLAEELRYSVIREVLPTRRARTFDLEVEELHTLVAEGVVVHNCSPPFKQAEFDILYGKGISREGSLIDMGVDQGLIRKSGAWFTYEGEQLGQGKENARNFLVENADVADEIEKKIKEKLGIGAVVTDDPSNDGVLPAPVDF
Arbovirus inh repeat – further read-out of Arbovirus inh, marked with its call; inhibition, %; measured here: 10K subset replicate screen; many hits read low in the repeat;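 first of two repeat runs on a subset; 0% = infected and 100% = uninfected wells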
The depositor's hits bear a star; x = not tested or not shown. Some of the compounds tested; rates above refer to the full screens.

The first four records, ahead of the listing:
SMILES	YopH inh	Mtb growth	Mtb betalactam	Arbovirus inh	RecA intein inh	others
NS(=O)(=O)c1ccc(CCNC(=O)c2cc(-c3ccc(Br)cc3)nc3ccccc23)cc1	x	8.2%	5.6	-12.4	-0.2
CN(C)CCOC(=O)/C(=C/c1cn(C)c2ccccc12)NC(=O)c1ccccc1	x	-9.8%	3.0	x	-2.6
CCOC(=O)c1c(NC(=O)COc2ccccc2C#N)sc2c1CC(C)(C)NC2(C)C	x	x	3.4	x	-0.2
COC(=O)c1ccc(CNC(=O)COC(=O)c2ccccc2-c2ccccc2)cc1	x	x	-8.2	x	1.6

Main list, repeating the preview:
SMILES	YopH inh	Mtb growth	Mtb betalactam	Arbovirus inh	RecA intein inh	others
NS(=O)(=O)c1ccc(CCNC(=O)c2cc(-c3ccc(Br)cc3)nc3ccccc23)cc1	x	8.2%	5.6	-12.4	-0.2
CN(C)CCOC(=O)/C(=C/c1cn(C)c2ccccc12)NC(=O)c1ccccc1	x	-9.8%	3.0	x	-2.6
CCOC(=O)c1c(NC(=O)COc2ccccc2C#N)sc2c1CC(C)(C)NC2(C)C	x	x	3.4	x	-0.2
COC(=O)c1ccc(CNC(=O)COC(=O)c2ccccc2-c2ccccc2)cc1	x	x	-8.2	x	1.6
CCN(CC(=O)Nc1ccc([N+](=O)[O-])cc1OC)CC(=O)NC(C)(C)C	-6.2	3.5%	-9.3	3.5	-0.7
CCOC(=O)c1c(NC(=O)C2=C(C)NC(=S)NC2c2ccc(F)cc2)sc(C)c1C (centres undefined)	-23.1	63.9%	87.6	-14.8	1.5
O=C1CN(c2cc(Cl)cc(Cl)c2)C(=O)CN1/N=C/c1cccnc1	x	1.0%	-2.3	x	3.2
COc1cc(N2C(=O)c3ccccc3C2=O)c(Cl)cc1C(=O)OCC(=O)N1CCOCC1	x	3.6%	-4.5	9.7	x
Cn1c(=O)[nH]c(=O)c2c1nc(N1CCCCC1)n2CCOc1ccccc1	-26.0	-13.4%	-0.8	6.0	-1.3
Cc1ccc(N2CCN(S(=O)(=O)N3CCCCC3)CC2)c(C)c1	x	-3.4%	-6.0	-2.0	x
CSc1ccccc1C(=O)NCc1ccc(S(N)(=O)=O)cc1	-10.0	8.0%	6.3	5.2	3.0
CC(C)c1ccc(NC(=O)Cn2c(=O)oc3ccccc32)cc1	x	x	9.2	x	-1.7
CCCc1cc(C(=O)N2CCN(S(=O)(=O)c3ccc(OC)c(OC)c3)CC2)cs1	-21.8	6.2%	-3.4	0.1	0.4
COc1ccc(CC(=O)N2CCN=C2SCc2ccc([N+](=O)[O-])cc2)cc1	x	1.5%	-7.6	1.4	14.8
COc1ccc(C2=NOC(C(=O)NCc3ccccn3)C2)cc1OC (centres undefined)	-10.6	4.1%	-0.7	1.9	4.3
Cc1ccc(C(=O)Nc2ccc([N+](=O)[O-])cn2)o1	-14.6	21.5%	-0.8	-7.6	3.8
Cc1ccccc1NC1=NCC(c2ccc([N+](=O)[O-])cc2)S1 (centres undefined)	x	8.4%	0.2	-7.3	3.3
CCOC(=O)c1c(NC(=O)Nc2ccc(C)cc2)sc2c1CCN(C)C2	x	-6.2%	1.6	x	x
O=C(CN(C(=O)c1csnn1)c1cccc(Cl)c1)NC1CCCC1	x	x	-2.3	x	-3.5
Cc1cc2cc(CNS(=O)(=O)N(C)C)ccc2[nH]1	-8.6	7.9%	-7.5	1.6	0.5	Arbovirus inh repeat=-1.2
COc1cc(OC)c(/C=C2\SC(=O)N(CC(=O)Nc3ccccc3F)C2=O)c(OC)c1	x	x	-7.1	x	-21.4
COc1ccc(NC(=O)C2CCN(S(C)(=O)=O)CC2)cc1Cl	-1.6	-3.2%	1.7	8.9	2.6
COc1ccc2nc(N3C(=O)CC(Cc4ccc(C)cc4)C3=O)sc2c1 (centres undefined)	-17.7	42.1%	61.1	8.1	2.7
OCC[C@@H]1C[C@H](O)[C@@H](O)[C@@]2(Cc3ccccc3CCO2)O1	x	x	-0.7	x	-4.4
COc1ccc(S(=O)(=O)N2CCN(CC(O)COc3ccc(CC#N)cc3)CC2)cc1OC (centres undefined)	x	x	-4.5	x	0.5
O=C(Nc1ccccc1)N1CCN(Cc2ccc(Cl)cc2)CC1	x	7.6%	6.0	7.6	0.6
Cc1ccc(N=Cc2sc(O)c3ccccc23)cc1	-1.6	-5.5%	7.9	2.2	-15.8
O=C(CN1C(=O)c2ccccc2C1=O)N1CCN(C2c3ccccc3-c3ccccc32)CC1	-17.0	5.8%	0.9	9.1	1.8
CCOc1ccc(NC(=O)CSc2nc3ccccc3c(=O)n2CCNC(C)=O)cc1	-51.8	0.7%	5.4	1.1	2.8
CCOc1ccc(C(=O)Oc2ccc(NC(C)=O)cc2)cc1	x	-6.8%	-9.6	-7.0	1.7
O=C(CSc1nnc(-c2ccncc2)n1-c1ccccc1)N1CCN(c2ccc(Cl)cc2)CC1	2.1	x	-9.9	-8.7	0.3
O=C(Nc1cnc2ccccc2c1)c1ccncc1	-4.2	-5.3%	0.7	-6.0	-1.2	Arbovirus inh repeat=-6.1
CC1CCN(c2ccc(C(=O)NCc3ccco3)cc2[N+](=O)[O-])CC1	-7.5	12.3%	81.0	-14.2	11.2
COc1ccc(CNC(=O)COC(=O)c2cccnc2Nc2cccc(C(F)(F)F)c2)cc1	10.9	2.8%	-4.2	-16.2	-4.8
O=C(c1ccco1)N1CCN(C(=O)C2CCN(S(=O)(=O)c3cccc4nsnc34)CC2)CC1	-8.4	-3.1%	-10.5	x	-2.9
CCCCOc1ccc(Cn2c(=O)oc3ccccc32)cc1	x	x	1.5	x	-0.3
CCOc1ccc(-n2c(SCC(=O)Nc3cc(C)on3)nc3c(c2=O)SCC3)cc1	x	x	3.5	x	3.0
COC(=O)c1sccc1NC(=O)c1c(C)cc(=O)oc1C	-43.4	-1.6%	5.5	6.5	0.1
CCc1ccccc1NC(=O)c1cc(-c2ccc(F)cc2)on1	x	5.1%	-3.0	0.5	1.9
CCOCCCNC(=O)c1ccc(CS(=O)(=O)Cc2ccccc2F)o1	-13.8	-1.4%	x	0.4	-1.3

7 entries drawn at random from the list so far, as already listed:
SMILES	YopH inh	Mtb growth	Mtb betalactam	Arbovirus inh	RecA intein inh	others
O=C(CN1C(=O)c2ccccc2C1=O)N1CCN(C2c3ccccc3-c3ccccc32)CC1	-17.0	5.8%	0.9	9.1	1.8
COC(=O)c1sccc1NC(=O)c1c(C)cc(=O)oc1C	-43.4	-1.6%	5.5	6.5	0.1
CCOCCCNC(=O)c1ccc(CS(=O)(=O)Cc2ccccc2F)o1	-13.8	-1.4%	x	0.4	-1.3
COc1ccc2nc(N3C(=O)CC(Cc4ccc(C)cc4)C3=O)sc2c1 (centres undefined)	-17.7	42.1%	61.1	8.1	2.7
CCCCOc1ccc(Cn2c(=O)oc3ccccc32)cc1	x	x	1.5	x	-0.3
COc1cc(OC)c(/C=C2\SC(=O)N(CC(=O)Nc3ccccc3F)C2=O)c(OC)c1	x	x	-7.1	x	-21.4
CCc1ccccc1NC(=O)c1cc(-c2ccc(F)cc2)on1	x	5.1%	-3.0	0.5	1.9

(next part)
SMILES	YopH inh	Mtb growth	Mtb betalactam	Arbovirus inh	RecA intein inh	others
COc1ccc(CCNC(=O)CSc2nnc(-c3ccccc3)o2)cc1OC	x	-7.8%	-5.1	x	4.8
CN(C)/C=C1/C(=O)N(c2ccc([N+](=O)[O-])cc2)N=C1c1ccccc1	0.4	4.2%	0.0	22.8	5.6
COc1ccccc1N1CCN(C(=O)c2c(C)noc2C)CC1	x	-12.6%	4.2	x	x
Nc1ncnc(N)c1N=Nc1ccccc1	x	x	-0.8	x	2.2
CCCc1cc(C(=O)N2CCC(n3nccc3NC(=O)c3ccc(OC)cc3)CC2)no1	x	x	1.8	x	4.3
CCOc1cc(CO)cc(Br)c1OCC(=O)O	-21.8	-5.5%	44.0	x	1.9
CC1CCN(c2ccc(NC(=O)c3cccnc3)cc2)CC1	-15.4	-5.5%	5.5	2.0	-1.0
O=C(COc1ccc(Cl)cc1)Nc1ccc2c(c1)C(=O)NC2=O	x	x	-27.2	x	-2.5
CC1CCN(C(c2cc3cc4c(cc3[nH]c2=O)OCO4)c2nnnn2CC2CCCO2)CC1 (centres undefined)	1.7	-3.0%	-2.5	-3.0	-4.3
CC1CCCN(C2=C(NS(=O)(=O)c3ccc(Cl)cc3)C(=O)c3ccccc3C2=O)C1 (centres undefined)	4.9	4.1%	5.3	-12.7	24.2
COc1ccccc1NC(=O)Cn1nnc(C(=O)NCc2ccc3c(c2)OCO3)c1N	x	x	2.5	x	-1.4
c1csc(C2CCCN2c2nc3nonc3nc2NC2CC2)n1 (centres undefined)	x	-2.1%	0.6	3.2	-4.2
Cc1c(OCC(=O)N2C[C@H]3C[C@@H](C2)c2cccc(=O)n2C3)ccc2c3c(c(=O)oc12)CCCC3	x	x	-4.5	x	0.1
O=C(COc1ccc(C2SCCS2)cc1)Nc1ccc(Cl)cc1	x	-2.5%	-4.0	x	4.5
CCc1c(O)nc(SCC(=O)Nc2ccccc2C)n(-c2ccc(C)cc2)c1=O	x	x	7.8	x	1.4
COc1ccccc1OCCNC(=O)c1cccs1	6.0	1.7%	20.2	-2.3	x	Arbovirus inh repeat=1.1
O=C(CSc1nc(O)cc(=O)n1-c1ccccc1)Nc1ccc2c3c(cccc13)CC2	-6.3	-0.5%	18.6	18.8	3.9
Cc1c(NC2=NC(C)(C)Cc3ccccc32)c(=O)n(-c2ccccc2)n1C	34.5	0.2%	-5.7	3.4	x
Cc1cc(C)cc(N(CC(=O)NCc2ccccc2Cl)S(=O)(=O)c2c(C)[nH]c(=O)[nH]c2=O)c1	x	x	-7.0	x	0.6
Cc1ccc(S(=O)(=O)N2CCc3ccccc3C2)cc1	x	x	-2.1	x	3.5
N/C(=N\OC(=O)c1ccc(Cl)cc1)c1ccccn1	-26.6	1.2%	84.0	0.4	-0.8
O=C(NC1CCSc2ccccc21)c1ccc(F)cc1 (centres undefined)	x	x	5.6	x	0.8
CC(=O)Nc1ccc2nc(CN3CCN(Cc4ccc(F)cc4)C(CCO)C3)ccc2c1 (centres undefined)	x	4.7%	-9.3	2.7	-0.3
CCOC(=O)N1CCN(CC(O)c2ccccc2)CC1 (centres undefined)	x	-10.2%	-10.0	2.6	-0.2
CC1(c2ccccc2Cl)NC(=O)N(CC(=O)Nc2ccccc2OC(F)F)C1=O (centres undefined)	x	x	-4.2	x	0.4
CC1(C)CC(=O)C2=C(C1)N(Cc1ccc(F)cc1)C(=O)C2(NC(=O)c1cccnc1)C(F)(F)F (centres undefined)	-5.8	-2.2%	7.8	0.2	-0.1
CCc1cc(C)cc(OCCOc2ccccc2/C=N/NC(C)=O)c1	x	x	5.0	x	1.9
CCOC(=O)N1CCN(S(=O)(=O)c2ccc(C(=O)Nc3nc4c(s3)CC(C)CC4)cc2)CC1 (centres undefined)	-1.4	x	7.1	-19.4	-8.3
Cc1ccccc1N(CC(=O)NC(C)(C)C)C(=O)CCC(=O)Nc1nccs1	x	x	-4.7	x	-3.5
Cc1nnc(SCc2ccc3c(c2)OCO3)s1	-3.2	2.1%	5.9	3.7	-0.7
COc1ccc(CNC(=O)CN(C(=O)CCC(=O)Nc2nccs2)c2ccc(C)cc2)cc1	x	x	-0.2	x	4.1
COc1ccccc1/C=C1\SC(=S)N(CCC(=O)N2CCCCC2CCO)C1=O (centres undefined)	x	x	6.6	x	3.7
O=C(COc1ccc2c3c(c(=O)oc2c1)CCC3)NCc1ccncc1	x	x	1.4	x	-0.9
CN(C)S(=O)(=O)NC(c1ccccc1)c1ccccc1	22.6	-5.3%	-3.9	-1.1	0.2
CCOc1ccc2c(c1)n(CO)c(=S)n2CO	-10.7	-9.7%	94.2	-2.8	-0.3
CNC(=O)C1=C(C)n2c(nc3ccccc32)NC1c1ccc(OC)cc1 (centres undefined)	-14.9	26.7%	-4.1	19.3	1.7
O=C(CSCc1ccc(Cl)cc1)Nc1ccc(S(=O)(=O)N2CCOCC2)cc1	-31.8	-5.0%	8.3	14.7	1.6
S=C(NCc1cccnc1)Nc1cccc(Cl)c1	-8.1	-8.0%	-15.4	1.0	-2.9

Assay outcomes: PubChem BioAssay, several laboratories
